# KCNQ2 inh: KCNQ2 potassium channel inhibitors, primary screen, cell-based, CHO-K1, FluxOR thallium flux, B-score (AID 2156) | 20 min; stronger effect = lower value; only compounds with negative scores are shown here; some inactives read as strong as hits | B-score at 10 µM | O88943 | hit rate 1.1% among 310,000;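 active = fluorescence ratio B-score at most minus 3 library SDs, with starting brightness B-score within 2 library SDs, cut at about -5.5 in these data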
# Target sequence (O88943 whole entry, looked up): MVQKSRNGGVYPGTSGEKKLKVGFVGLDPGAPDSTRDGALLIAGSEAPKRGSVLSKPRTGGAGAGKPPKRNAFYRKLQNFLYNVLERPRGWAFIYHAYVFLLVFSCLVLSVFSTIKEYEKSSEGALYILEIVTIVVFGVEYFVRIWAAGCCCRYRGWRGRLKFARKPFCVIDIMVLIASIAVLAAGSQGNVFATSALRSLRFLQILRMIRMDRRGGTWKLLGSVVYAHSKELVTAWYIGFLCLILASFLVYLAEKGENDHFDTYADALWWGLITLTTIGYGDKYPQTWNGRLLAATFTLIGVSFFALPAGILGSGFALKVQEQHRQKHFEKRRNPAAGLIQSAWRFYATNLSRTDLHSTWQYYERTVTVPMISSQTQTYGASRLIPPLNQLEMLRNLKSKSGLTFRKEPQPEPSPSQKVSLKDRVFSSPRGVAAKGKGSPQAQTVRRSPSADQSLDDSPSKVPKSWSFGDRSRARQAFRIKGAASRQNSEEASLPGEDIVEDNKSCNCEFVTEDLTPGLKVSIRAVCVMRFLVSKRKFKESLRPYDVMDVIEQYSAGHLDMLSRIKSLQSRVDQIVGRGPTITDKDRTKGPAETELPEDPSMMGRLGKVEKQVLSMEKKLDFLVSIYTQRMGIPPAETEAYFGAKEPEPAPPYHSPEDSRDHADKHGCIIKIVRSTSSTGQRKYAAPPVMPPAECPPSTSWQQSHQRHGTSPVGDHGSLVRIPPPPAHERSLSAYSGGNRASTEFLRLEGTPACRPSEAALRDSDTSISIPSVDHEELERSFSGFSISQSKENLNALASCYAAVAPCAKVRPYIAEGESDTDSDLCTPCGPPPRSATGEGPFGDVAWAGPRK
# KCNQ2 inh baseline: further read-out of KCNQ2 inh, marked with its call; B-score; measured here: initial fluorescence intensity artifact check;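 brightness before thallium and not channel activity; 0 = typical well and far values either way flag optical interference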
# * = called active by the depositor; i = inactive. This is a subset, so the mix of outcomes need not match the whole.
# Sequence of screens – KCNQ2 inh baseline | KCNQ2 inh
> CC(OCc1ccccc1)C(NC(=O)OC(C)(C)C)C(=O)NCC1CCCO1 (configuration not stated)
  1.1 | i
> CN(C)CCCNC(=O)C(=O)Nc1cc2c3c(c1)CC(=O)N3CCC2
  0.58 | i
> Cc1ccc(NC(=O)C2COc3ccccc3O2)nc1 (configuration not stated)
  -0.02 | i
> CCN(CC)CCn1c(NCc2cc(OC)ccc2OC)nc2ccccc21
  -1.9 | i
> CC(Nc1ccc(Cl)c(Cl)c1)C(=O)NN (configuration not stated)
  -0.39 | i
> COc1ccc(C(=O)O)cc1NC(=S)NC(=O)Cc1ccc(Cl)cc1
  1.2 | i
> CCN(CC)CCCNC(=O)CSc1nc(-c2ccc(F)cc2)cc(C(F)(F)F)n1
  -0.24 | i
> CC1CCCN(C(=O)c2ccc3c(c2)OCO3)C1 (configuration not stated)
  -0.36 | i
> CC1CCCC(C)N1c1nnc(N)s1 (configuration not stated)
  -0.03 | i
> Cc1ccc(S(=O)(=O)NCCC(=O)Nc2nccs2)cc1
  3.2 | i
> CC(=O)Oc1cc2c(cc1Cl)C1(CC(c3ccccc3Cl)O2)CC(C)(C)NC(=S)N1 (configuration not stated)
  0.97 | i
> CC1CCCN(CCCOc2ccc([N+](=O)[O-])cc2)C1 (configuration not stated)
  0.21 | i
> O=C(N/N=C/c1cccc2ccccc12)c1ccccc1Cl
  -0.98 | i
> CC1Cc2ccccc2N1C(=O)CSc1nnc(-c2ccc(S(=O)(=O)N3CCOCC3)cc2)n1C (configuration not stated)
  -0.26 | i
> CCCCC(=O)Nc1ccc(C(=O)NCCCn2ccnc2)cc1
  3.9 | i
> COc1ccc(CNC(=O)COc2ccc(S(=O)(=O)NC(C)C)cc2)cc1
  0.86 | i
> COc1ccc(S(=O)(=O)N2CCN(Cc3ccccc3[N+](=O)[O-])CC2)cc1
  0.94 | i
> COCCN(C(=S)Nc1ccc(C(C)C)cc1)C(C)c1cccs1 (configuration not stated)
  0.1 | i
> COc1ccc(NC(=O)Nc2ccc(C(=O)N3CCOCC3)cc2)cc1
  0.41 | i
> COc1ccc(C/C(N)=N/OC(=O)CCc2ccccc2)cc1
  -0.26 | i
> O=C(O)C1CCCN(C(=O)NCc2ccccc2)C1 (configuration not stated)
  1.6 | i
> COc1cc(NC(=S)NCCC(c2ccccc2)c2ccccc2)c(OC)cc1Cl
  -0.55 | i
> CCn1cc(CN2CCCC(CNS(=O)(=O)Cc3ccccc3)C2)cn1 (configuration not stated)
  0.61 | i
> COc1ccc(CC(=O)Nc2ccc(N3CCOCC3)cc2)cc1OC
  2.9 | i
> Cc1ccc(-c2csc3ncnc(SCC(=O)NCc4ccc5c(c4)OCO5)c23)cc1
  -1.1 | i
> C=CCSc1nc2c(C(=O)OCC)nnn2c2ccccc12
  2.2 | i
> Cc1cccc(Nc2nc(-c3ccc4c(c3)OCCO4)cs2)c1
  -0.44 | i
> COc1cccc(OCCn2cc(C(=O)c3ccco3)c3ccccc32)c1
  -0.99 | i
> CCC(C(=O)NC1CCCCCC1)c1ccccc1 (configuration not stated)
  1.1 | i
> CCC(C)(C)NC(=O)CN(CC1CCCO1)C(=O)CNS(=O)(=O)c1ccccc1 (configuration not stated)
  -0.38 | i
> CCCCN(C(=O)c1ccc(S(=O)(=O)N2CCOCC2)cc1)C1CCS(=O)(=O)C1 (configuration not stated)
  1.1 | i
> CCC1(c2ccc(F)cc2)NC(=O)N(CC(=O)Nc2ccccc2Cl)C1=O (configuration not stated)
  -0.08 | i
> CC(C)NC(=S)N1CCN(S(=O)(=O)c2cccc(C(F)(F)F)c2)CC1
  3.1 | i
> COC(=O)c1cc2occc2n1Cc1cccc(C)c1
  -0.72 | i
> O=C(NCN1CCOCC1)c1cnccn1
  -1 | i
> CN(c1ccccc1C(=O)Nc1cccnc1)S(C)(=O)=O
  0.46 | i
> Cc1ccccc1N(CC(=O)NC(C)(C)C)C(=O)CS(=O)CC(=O)Nc1ccc2c(c1)OCO2 (configuration not stated)
  -0.91 | i
> CCc1ccc(C(=O)OCC(=O)NCC(F)(F)F)cc1
  -2.6 | i
> O=[N+]([O-])/C(=C\Nc1ccc(F)cc1F)S(=O)(=O)c1ccccc1
  -1.1 | i
> C=CCSc1nc(C)c2cc(C)cc(C)c2n1
  -0.07 | i
> O=C(COc1ccccc1Cl)Nc1ccccc1C(=O)N1CCOCC1
  2.6 | i
> CN1/C(=C/c2cccc[n+]2CCO)Sc2ccccc21
  0.31 | i
> CCOC(=O)CNc1c(-c2ccc(Cl)cc2)nc2cnccn12
  0.72 | i
> CCOC(=O)CC1COc2ccccc2N1C(=O)c1ccc(F)cc1 (configuration not stated)
  1.7 | i
> C/C(CC(=O)N1CCCC1)=N\NC(=O)c1cc2ccccc2cc1O
  1 | i
> Cc1cccc(NC(=O)c2ccccc2OCC(=O)c2ccccc2)c1
  -2.1* | -8.2*
> O=C(Nc1cccc(NC(=O)c2ccc(-c3cccc(Br)c3)o2)c1)c1ccco1
  -0.97 | i
> Cc1ccc(-c2cc(-c3ccc4c(c3)OCO4)c(C#N)c(N)n2)o1
  -1.3 | i
> O=C(O)c1ccc(/C=N\Nc2ccccn2)cc1
  -0.56 | i
> CCOc1cccc(C(=O)Nc2cccc(C(=O)NC(C)(C)C)c2)c1
  1.5 | i
> CCC(NC(=O)c1ccccc1NC(=O)c1ccccc1)C(=O)NNC(=O)c1cccnc1 (configuration not stated)
  -0.24 | i
> COc1ccc(N2CCN(C(=O)COC(=O)CNC(=O)c3ccc(Cl)cc3Cl)CC2)cc1
  -0.05 | i
> COc1ccc(-c2cc(C(=O)O)sc2C)cc1
  2.5 | i
> C[C@@H](NC(=O)[C@@H]1Cc2ccccc2CN1C(=O)OC(C)(C)C)C(=O)NCC1CCCO1 (some centres not stated)
  -1.4 | i
> CC(=O)OC1CC(c2cc(C(C)(C)C)c(O)c(C(C)(C)C)c2)=NO1 (configuration not stated)
  -0.37 | i
> CCOC(=O)N1CCN(c2cc(=O)n(-c3cccc(Br)c3)c(=O)[nH]2)CC1
  -0.23 | i
> Cc1cc2nnc(SCC(=O)NCC3CCCO3)n2c2ccccc12 (configuration not stated)
  1.2 | i
> Fc1ccc(CSc2nc3ccccc3[nH]2)cc1
  1.7 | i
> Cc1ccc(Cn2c(C)nc3ccc([N+](=O)[O-])cc3c2=O)cc1
  3.3 | i
> Cn1c(SCC#N)nc2ccccc2c1=O
  2.2 | i

# Later entries:
# Sequence of screens – KCNQ2 inh baseline | KCNQ2 inh
> O=C(O)c1ccc(N/N=C/C2=Cc3ccccc3OC2)cc1
  -0.01 | i
> CCn1c(Cn2nnc(-c3ccccc3)n2)nnc1SCC(=O)Nc1cccc(C)c1C
  0.16 | i
> CCC(C)[C@@H](C(=O)Nc1ccc2c(c1)OCO2)N1Cc2ccccc2C1=O (some centres not stated)
  0.06 | i
> COC(=O)C(NC(C)=O)(Nc1sc2c(c1C(N)=O)CCCC2)C(F)(F)F (configuration not stated)
  0.56 | i
> COc1cccc(CNS(=O)(=O)c2ccc3c(c2)N(C(C)=O)CCO3)c1
  -1.9 | i
> Cc1cccc(C)c1N1CCN(S(=O)(=O)N2CCOCC2)CC1
  0.42 | i
> NC(N)=Nc1cc2ccccc2c2ccccc12
  0.31 | i
> Cc1ccc(-c2nc(CS(=O)CC(=O)N3CCN(c4ccc(F)cc4)CC3)c(C)o2)cc1 (configuration not stated)
  0.75 | i
> CN(Cc1nccn1C)C(=O)c1ccc2nc(Cc3ccccc3F)oc2c1
  2.5 | i
> CCn1c(=NC(=O)CS(=O)(=O)c2ccc(F)cc2)sc2cccc(OC)c21
  -0.86 | i
> COCC(=O)N1CCC(Oc2ccc(C(=O)N3C[C@H]4CC[C@H]3C4)cc2)CC1
  -0.14 | i
> COc1cccc(-n2c(SCC(=O)NCCC3=CCCCC3)nc3n[nH]c(C)c3c2=N)c1
  -1.1 | i
> O=C(CCC(=O)c1ccccc1)Nc1ccccc1
  0.18 | i
> Cc1cc(C(=O)NCC(c2cccs2)N2CCOCC2)ccc1[N+](=O)[O-] (configuration not stated)
  1.8 | i
> COc1ccc(-n2cc(-c3ccccc3)c3c(NCCOCCO)ncnc32)cc1
  1.1 | i
> COc1cc2c(cc1OC)C(C)N(C(=O)c1sccc1C)CC2 (configuration not stated)
  0.5 | i
> CCCc1c(C(=O)N/N=C/c2ccc(OCc3ccccc3)c(OC)c2)nnn1-c1nonc1N
  0.31 | i
> Cc1cccc(-n2c(=O)c3c(n4cnnc24)-c2ccccc2CC32CCCCC2)c1
  1.7 | i
> O=C(O)CC(Cc1ccc(Cl)cc1)C(=O)Nc1ccc([N+](=O)[O-])cc1 (configuration not stated)
  0.39 | i
> CCN(C(=O)CSc1nnc(-c2ccncc2)n1C)C1CCS(=O)(=O)C1 (configuration not stated)
  0.06 | i
> CCOc1cc(S(=O)(=O)NC2CC(C)(C)NC(C)(C)C2)ccc1Cl
  1.2 | i
> O=C(Nc1ccc(S(=O)(=O)N2CCCC2)cc1)c1cccnc1
  0.9 | i
> O=c1cc(NC2CCCCC2)[nH]c(=O)[nH]1
  0.53 | i
> CC1CN(C(=S)NC(=O)c2ccc([N+](=O)[O-])cc2)CC(C)O1 (configuration not stated)
  0.11 | i
> CSc1ccccc1C(=O)NCCSc1ccc(C)cc1
  0.71 | i
> COc1ccc(-c2nc3cc(NC(=S)NC(=O)Cc4ccccc4)ccc3o2)cc1
  0.49 | i
> CC(=O)N1CCSc2ccc(S(=O)(=O)NCc3ccccc3)cc21
  -1.6 | i
> Cc1ccc(NC(=O)CCn2cccc2)cc1
  -0.1 | i
> Cc1cc(OC2CCCCC2)nc(NCc2ccccc2)n1
  -0.07 | i
> CCCn1nc2cc(C(=O)NCCc3ccc(C)cc3)ccc2c1OCC
  0.04 | i
> Cc1nc(N(C)Cc2ccccc2)c2nnn(Cc3ccccc3)c2n1
  -2.3 | i
> Cc1cc2cc3c(cc2nc1SCc1ccccn1)OCCO3
  -0.46 | i
> Cc1ccc(CCSc2ccc(C(C)C)cc2)cn1
  -1.1 | i
> CC(C)CC(C(=O)Oc1ccc2c3c(c(=O)oc2c1)CCC3)N1C(=O)c2ccccc2C1=O (configuration not stated)
  -0.37 | i
> Cc1ccccc1CCNC(=O)C1CCN(S(=O)(=O)c2ccc(-n3cnnn3)cc2)CC1
  -0.16 | i
> Cc1ccc(Cl)cc1NC(=S)N(CCCN1CCOCC1)Cc1ccccn1
  0.18 | i
> O=C(COC(=O)[C@H](Cc1c[nH]c2ccccc12)NC(=O)c1cccs1)NCc1ccccc1
  0.83 | i
> Cc1cc(=O)n(C2CCS(=O)(=O)C2)[nH]1 (configuration not stated)
  0.15 | i
> Cc1cc(C)nc(NS(=O)(=O)c2ccc(NC(=O)c3ccco3)cc2)n1
  0.75 | i
> Cc1cc(=O)n(-c2ccc(C(=O)O)cc2)[nH]1
  -2.2 | i
> COc1ccccc1NC(CC(=O)c1ccccc1)C(=O)OCC(=O)c1ccc(C)c(C)c1 (configuration not stated)
  0.28 | i
> CCOC(=O)C1CCN(S(=O)(=O)c2ccc(NC(C)=O)c(Cl)c2)CC1
  1.4 | i
> N#C/C(=C(/O)c1ccc(Br)s1)c1nc2ccccc2[nH]1
  0.69 | i
> O=C(COC(=O)c1cccnc1)Nc1cccc2ccccc12
  -0.38 | i
> CC(=O)Nc1ccc(NC(=O)CN(C)CC(=O)Nc2ccccc2Br)cc1
  -0.26 | i
> COCCN(C(=O)CCC(=O)Nc1nccs1)C(C(=O)NC(C)(C)C)c1ccc(C)cc1 (configuration not stated)
  -0.05 | i
> COc1cc(OC)cc(C(=O)N[C@H](C(=O)Nc2ccc(S(=O)(=O)N(C)C)cc2)C(C)C)c1
  -1.6 | i
> O=C(CCC1CCN(C(=O)Cc2c(F)cccc2F)CC1)NC1CC1
  -0.07 | i
> CCO[C@H]1OC(C(=O)N2CCCCCCC2)=C[C@@H](c2ccc(C(F)(F)F)cc2)[C@@H]1CCCO
  3.4 | i
> COc1cc(/C=N/N2CCN(C3c4ccccc4-c4ccccc43)CC2)cc(OC)c1OC
  -1 | i
> COc1cc(NC(=O)Cn2cnc(S(=O)(=O)N3CCOCC3)c2)cc(OC)c1OC
  -0.07 | i
> CCC(C(=O)Nc1nc(C)c(C(=O)OC)s1)c1ccccc1 (configuration not stated)
  -0.38 | i
> C=C1C(C(=O)Nc2cccc(OC)c2)C1C(=O)Nc1cccc(OC)c1 (configuration not stated)
  -0.02 | i
> COc1ccc(/C=C/C2=CC(C)(C)NC(=S)N2)cc1
  1.4 | i
> Cc1cc(C(=O)N2CCN(c3ncccc3C#N)CC2)no1
  0.01 | i
